Arbovirus anti – antivirals against arbovirus infection; arbovirus infection cell-based antiviral screen; AID 1251; 200,000 compounds, 0.37% hits; inhibition, % at 10 µM;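 active = inhibition from about 30%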;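 note: bluetongue infection of BSR cells; cell survival read as ATP light after 72 h; 0% = infected wells without compound and 100% = uninfected wells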
YopH PTP inh – YopH (Yersinia) phosphatase inhibition | fluorescence Ex485/Em525 | inhibition, %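 (about 10 µM by stock and volumes)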 | 140,000 compounds, 0.16% hits | AID 898;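 active = inhibition of 50% or more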;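 note: controls were vehicle for no effect and minimum signal wells for full effect; inactives centre near -20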
Mtb growth – M. tuberculosis H37Rv growth inhibitors, H37Rv strain (AID 1626); M. tuberculosis H37Rv growth inhibition; higher % means a stronger effect; inhibition, % at 10 µM, or IC50 in µM where a hit was titrated; 220,000 compounds, 0.95% hits;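 active = confirmed in a dose series; inconclusive = inhibition above 80% but not taken into the dose series; inactive = below 80% or under 30% at every dose of the series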;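 note: bacteria incubated seven days before Alamar blue readout; 0% = bacteria only wells and 100% = bacteria with antibiotic wells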
RecA splice inh – blocks M. tuberculosis RecA intein splicing; P9WHJ3; cell-free RecA intein splicing, fluorescence; inhibition, %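 (about 9 µM by stock and volumes)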; 290,000 compounds, 0.75% hits; AID 2221; in the data active = inhibition above about 30%; inconclusive = no clear call, values can overlap the other calls;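 note: 0% = vehicle wells and 100% = reference inhibitor control wells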
Target sequence (P9WHJ3 whole entry, looked up, canonical isoform): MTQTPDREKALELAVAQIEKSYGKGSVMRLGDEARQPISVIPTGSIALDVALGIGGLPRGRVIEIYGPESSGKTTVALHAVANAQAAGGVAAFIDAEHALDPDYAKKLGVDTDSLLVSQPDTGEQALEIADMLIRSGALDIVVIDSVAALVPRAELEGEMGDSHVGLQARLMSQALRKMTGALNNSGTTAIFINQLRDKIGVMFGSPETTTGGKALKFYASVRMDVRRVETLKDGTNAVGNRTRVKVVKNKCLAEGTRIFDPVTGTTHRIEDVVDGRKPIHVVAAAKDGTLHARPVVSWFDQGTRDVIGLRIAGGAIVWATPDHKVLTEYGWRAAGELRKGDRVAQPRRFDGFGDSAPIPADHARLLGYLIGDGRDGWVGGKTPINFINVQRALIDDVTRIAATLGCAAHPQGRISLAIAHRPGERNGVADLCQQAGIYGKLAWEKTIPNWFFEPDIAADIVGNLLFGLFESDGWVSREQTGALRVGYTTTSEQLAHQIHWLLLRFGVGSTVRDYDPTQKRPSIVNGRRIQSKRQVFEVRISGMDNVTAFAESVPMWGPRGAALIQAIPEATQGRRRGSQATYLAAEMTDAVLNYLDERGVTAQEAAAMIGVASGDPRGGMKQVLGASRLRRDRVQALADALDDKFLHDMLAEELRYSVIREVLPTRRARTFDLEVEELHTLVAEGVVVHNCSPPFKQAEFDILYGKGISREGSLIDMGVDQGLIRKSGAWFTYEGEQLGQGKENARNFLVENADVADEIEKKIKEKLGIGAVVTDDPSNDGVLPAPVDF
Mtb betalactam – beta-lactam sensitization of Mtb H37Rv; M. tuberculosis H37Rv growth with meropenem, percent inhibition; hits of this screen are not shown here; 330,000 compounds, 0.27% hits; inhibition, % at 25 µM; AID 434955;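 active = about 74% or more and at least 40 points above the plate without the antibiotic, then above 30% in a dose series; inconclusive = first-round hits that could not be retested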;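 note: growth measured after seven days incubation then overnight dye step; 0% = bacteria only wells and 100% = bacteria with antibiotic; twin plates without the antibiotic show which effects depend on it; some results filed as inactive read as strong as hits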
Arbovirus anti repeat – second read-out of Arbovirus anti, no call of its own (marks repeat the call); inhibition, %; measured here: 10K subset replicate screen; many hits read low in the repeat;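 first of two repeat runs on a subset; 0% = infected and 100% = uninfected wells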
The depositor's hits bear a star; ? = inconclusive; / = not tested or not shown. Only part of the results is shown; count on the stated rates, not on these rows.

SMILES | Arbovirus anti | YopH PTP inh | Mtb growth | RecA splice inh | Mtb betalactam | others
CCC1C(=O)NCCN1C(=O)c1ccc2nc(Cc3cccc(Cl)c3)oc2c1 (configuration not stated) | / | / | / | -0.8 | -3.4
NC(=O)CSc1nnc(CNc2cccc(Cl)c2)n1CCc1ccccc1 | 0.9 | -39.4 | 4.3% | 4.2 | 9.8
CN(CC(=O)O/N=C(\N)c1ccc([N+](=O)[O-])cc1)S(=O)(=O)c1ccc2ccccc2c1 | -1.4 | -10.6 | / | -2.8 | -3.5
CCOC(=O)Cn1c(=O)c2c(nc3n2CCCN3Cc2ccccc2)n(C)c1=O | / | / | / | 2.7 | -1.4
C[N+](C)(C)CC(=O)N/N=C/c1c2ccccc2cc2ccccc12 | / | / | / | -18.7 | 1.3
Cn1c(=O)c2c(ncn2CC(=O)Nc2nccs2)n(C)c1=O | / | / | / | -1.7 | -6.5
COc1ccccc1CNC(=O)C1CC(c2ccc([N+](=O)[O-])cc2)=NO1 (configuration not stated) | 1.4 | -26.4 | 12.4% | -2.8 | -7.2
COc1ccc(OC)c(NC(=O)c2ccc3c(=O)n(CCc4ccccc4)c(=S)[nH]c3c2)c1 | -9.1 | -28.1 | 3.4% | -0.9 | -8.7
CC(=O)c1ccc(C(=O)N2CCCC(CCC(=O)N(C)CCc3ccccn3)C2)s1 (configuration not stated) | 5.9 | / | 7.6% | 6.4 | 1.6
CC12c3ccccc3C(c3ccccc31)C1C(=O)N(Cc3cccnc3)C(=O)C12 (configuration not stated) | 3.0 | -27.0 | 0.7% | -0.1 | 3.9
S=c1[nH]nc(COc2ccccc2)n1/N=C/c1ccco1 | 0.1 | / | 0.2% | 1.9 | -2.0
CC(c1nccs1)N(C)C(=O)CCc1nnc(-c2ccc(-c3ccccc3)cc2)o1 (configuration not stated) | -14.4 | / | 4.6% | 1.6 | 4.2
CCCCC(=O)Nc1ccc(C(=O)NNC(=O)c2ccccc2Br)cc1 | 7.1 | -16.1 | 2.3% | -1.0 | 2.2
O=S(=O)(NCc1cc(-c2ccc(Cl)cc2)no1)c1ccc(Cl)cc1 | 1.5 | -29.0 | -1.8% | -5.7 | 4.3
COc1ccc(C(=O)C2CCCN(C3CSCCSC3)C2)c(OC)c1 (configuration not stated) | 1.6 | / | 4.3% | 2.5 | 3.1
CCOC(=O)c1cnc(SC)nc1Sc1ccccc1 | 4.4 | -14.5 | 6.2% | 14.0 | 4.5
CC1=C(C(=O)Nc2ccccc2C(=O)NCc2ccccc2)SCCO1 | / | / | / | -1.0 | 2.5
CCN(CC)CCNC(=O)c1ccc(NC(=O)C2CC(=O)N(c3ccc4c(c3)OCCO4)C2)cc1 (configuration not stated) | / | / | / | -0.3 | -13.2
CCOC(=O)C1(CCC(C)C)CC(CSc2nc3ccccc3[nH]2)OC1=O (configuration not stated) | -1.2 | 5.0 | 8.7% | 1.4 | -1.4
COc1ccc(N2C(=O)c3cccc4cccc(c34)C2=O)cc1 | / | / | / | -0.6 | -6.1

Reprinted at random: 2 compounds from above
SMILES | Arbovirus anti | YopH PTP inh | Mtb growth | RecA splice inh | Mtb betalactam | others
CCOC(=O)c1cnc(SC)nc1Sc1ccccc1 | 4.4 | -14.5 | 6.2% | 14.0 | 4.5
CC12c3ccccc3C(c3ccccc31)C1C(=O)N(Cc3cccnc3)C(=O)C12 (configuration not stated) | 3.0 | -27.0 | 0.7% | -0.1 | 3.9

The main list resumes, repeating the 2 entries before the break.
SMILES | Arbovirus anti | YopH PTP inh | Mtb growth | RecA splice inh | Mtb betalactam | others
CCOC(=O)C1(CCC(C)C)CC(CSc2nc3ccccc3[nH]2)OC1=O (configuration not stated) | -1.2 | 5.0 | 8.7% | 1.4 | -1.4
COc1ccc(N2C(=O)c3cccc4cccc(c34)C2=O)cc1 | / | / | / | -0.6 | -6.1
COc1ccc(/C=C/C(=O)Nc2c(C)nn(C)c2C)cc1COc1ccc(Cl)cc1Br | -7.8 | 16.0 | -8.7% | -2.2 | 16.9
Cc1cccc(/N=C/c2c(C)[nH]n(-c3ccccc3)c2=O)n1 | / | / | -10.6% | 5.6 | -4.8
O=C(NC1CC2CCCC(C1)N2Cc1ccccc1)C1CCCCC1 (configuration not stated) | -3.1 | / | 3.4% | -0.3 | -1.8
O=C(COc1cccc(Cl)c1)NNC(=S)Nc1ccccc1 | 0.5 | -21.1 | 7.8% | -0.8 | 0.5
S=C(Nc1cccc(Cl)c1)Nc1cccc2cnccc12 | 25.3 | 3.0 | ? | / | 6.0
Cc1ccc(-c2nc(-c3cccnc3)sc2CC(=O)Nc2ccc(C)c(Cl)c2)cc1 | -5.2 | -31.6 | 25.8% | 1.2 | 27.8
COc1ccccc1S(=O)(=O)Cc1ccc(C(=O)N2CCCC2)o1 | 4.6 | -32.3 | -4.7% | / | -2.4 | Arbovirus anti repeat=2.2
Cc1ccc2nc(-c3cccc(Br)c3)cc(C(=O)Nn3cnnc3)c2c1 | 0.0 | / | 7.1% | -5.2 | 4.7
Cc1[nH]n(-c2ccccc2)c(=O)c1/C=N/NC(=O)COc1ccccc1[N+](=O)[O-] | -22.7 | -23.2 | 0.5% | 8.5 | 31.9
Clc1ccc(CSc2nnc(CNc3cccc(Cl)c3)o2)cc1 | -30.2 | 7.1 | / | 2.2 | 57.9
COc1nc(/C=C/N(C)C)c([N+](=O)[O-])c(OC)n1 | / | / | 5.3% | -0.3 | -1.3
CC(C)Cc1nnc(NC(=O)CCC(=O)N2CCN(Cc3ccc(F)cc3)CC2)s1 | / | / | / | -0.5 | 2.7
COc1ccc2cc(C(=O)NCCc3ccccc3)[nH]c2c1 | / | / | / | -1.6 | -1.2
CC1CN(C(=O)Nc2ccc3c(c2)OCO3)CC(C)O1 (configuration not stated) | 4.3 | -22.7 | -1.0% | -3.0 | -8.4
CCC(Oc1ccccc1)C(=O)Nc1ccc(S(=O)(=O)N2CCOCC2)cc1 (configuration not stated) | 0.0 | -12.7 | 2.4% | / | 11.7
O=C(NCc1cccnc1)c1ccccc1CCc1ccccc1 | 6.2 | / | 5.5% | 1.0 | -0.1
CCOC(=O)c1c(NC(=O)CSc2cn(CC)c3ccccc23)sc2c1CCC2 | 4.8 | -37.3 | -1.3% | -1.0 | 4.4
Cc1csc(NC(=O)CS(=O)(=O)c2ccccc2)n1 | 7.0 | / | -3.3% | -2.7 | 7.5
O=C(CNCc1ccccn1)Nc1cc(S(=O)(=O)N2CCCCC2)ccc1Cl | -9.3 | / | -5.8% | -1.5 | 2.8
CSc1nnc(NC(=O)c2ccc(S(=O)(=O)N(C)C)cc2)s1 | -0.4 | / | 1.6% | -0.7 | 1.0
O=C(CSc1nc2ccccc2[nH]1)Nc1cccc(S(=O)(=O)N2CCOCC2)c1 | -1.2 | / | 1.5% | 5.9 | 8.4
CCC(=O)c1ccc(NC(C)=O)cc1O | / | / | -9.7% | -1.1 | -4.1
O=C(NCc1ccncc1)C1CCCN1S(=O)(=O)c1ccc(Cl)cc1 (configuration not stated) | / | / | / | -1.2 | -7.1
C#CCSc1nnnn1-c1ccc(OCC)cc1 | / | / | 4.8% | 2.1 | 2.3
COP(=O)(/C=C(\Cl)c1ccccc1)/C=C(\Cl)c1ccccc1 | / | / | / | 8.1 | -0.6
COc1cc(OC)cc(N(C(=O)CNC(=O)c2cccs2)C(C(=O)NCC2CCCO2)c2ccc(OC)c(OC)c2)c1 (configuration not stated) | 1.2 | / | -5.2% | 0.4 | -6.7
C/C(=N\Nc1nccnc1Cl)c1ccc(O)cc1 | / | / | / | 2.3 | 4.8
COC(=O)c1ccc(COC(=O)CNC(=O)c2cccs2)cc1 | / | / | / | 7.0 | -3.8
CCOC(=O)c1cnc(SCCc2ccccc2)nc1N | -11.4 | -4.5 | -4.3% | 0.4 | -0.2
CCCn1c(SC(C(=O)Nc2cccc(OC)c2)c2ccccc2)nc2ccccc2c1=O (configuration not stated) | -4.7 | -7.2 | 11.6% | -3.1 | 32.7
Cc1ccc(S(=O)(=O)N2CCC(C(=O)C3C(=O)CC(C)(C)CC3=O)CC2)cc1 | -0.3 | / | 0.9% | -0.7 | -8.0
CCOCCCNC(=O)C(c1ccc(Cl)cc1)N1CCN(c2ccccc2)CC1 (configuration not stated) | 4.4 | -38.9 | 3.1% | 0.7 | -3.0 | Arbovirus anti repeat=3.1
O=C(Cn1nc(C(F)F)cc1C(F)F)NNC(=S)Nc1ccc([N+](=O)[O-])cc1 | 5.1 | / | -1.0% | -5.1 | -1.0
COCCCN1C(=O)c2[nH]nc(-c3ccccc3O)c2C1c1ccc(Cl)cc1 (configuration not stated) | 14.8 | -13.3 | -4.9% | -7.7 | 12.2
COc1cc(NC(=S)N2CCN(C(=O)C3CCCO3)CC2)c(OC)cc1Cl (configuration not stated) | -7.6 | -19.9 | 4.4% | -3.8 | -12.5
CC1CCCCC1NC(=O)c1ccc(S(=O)(=O)N2CCCC2)cc1 (configuration not stated) | 1.8 | 5.7 | -3.5% | 3.9 | -8.0
CC(OC(=O)CCCNC(=O)c1ccc(Cl)cc1)C(=O)N(C)Cc1ccccc1 (configuration not stated) | / | / | / | 1.0 | 1.9
CC1=CC2=NC(=O)/C(=C\c3cc(C)n(-c4cccc(Cl)c4)c3C)C(=N)N2O1 | 2.2 | -16.8 | 5.2% | -7.7 | 1.7
CN(C)/C=C1\Cc2ccccc2C1=O | / | / | 2.5% | -1.4 | -6.6
O=C(NCC(=O)N1CCN(Cc2ccccc2)CC1)c1ccc(Br)o1 | / | / | / | 1.5 | 3.9

Next part (three carried over from the part before).
SMILES | Arbovirus anti | YopH PTP inh | Mtb growth | RecA splice inh | Mtb betalactam | others
CC1=CC2=NC(=O)/C(=C\c3cc(C)n(-c4cccc(Cl)c4)c3C)C(=N)N2O1 | 2.2 | -16.8 | 5.2% | -7.7 | 1.7
CN(C)/C=C1\Cc2ccccc2C1=O | / | / | 2.5% | -1.4 | -6.6
O=C(NCC(=O)N1CCN(Cc2ccccc2)CC1)c1ccc(Br)o1 | / | / | / | 1.5 | 3.9
Cc1ccc(SC[C@H](Cc2ccccc2)N2CCN(CC(C)C)CCC2=O)cc1 | / | / | -7.8% | 4.0 | 2.2
COc1ccc(Cl)cc1-c1n[nH]c(=S)n1C | 0.3 | -7.9 | -0.1% | -0.7 | -3.5
Cc1ccc(Nc2c([N+](=O)[O-])cc(C(=O)N3CC(=O)Nc4ccccc43)cc2[N+](=O)[O-])c(C)c1 | -4.1 | -45.9 | 0.8% | 7.5 | -1.9
CCOC(=O)c1cc2c(=O)n3cccc(C)c3nc2n(Cc2ccco2)c1=NC(=O)c1ccccc1 | -6.1 | -10.1 | -6.6% | -427.4 | -0.8
CC(=O)N1CCc2c(sc(NC(=O)C3CCCN3S(=O)(=O)c3cccs3)c2C(N)=O)C1 (configuration not stated) | / | / | / | -2.2 | -9.5
O=C(NC1(C(F)(F)F)NC(=O)N(c2ccccc2)C1=O)c1cccs1 (configuration not stated) | 2.1 | -4.3 | -1.3% | -3.0 | -1.3
CN(C)S(=O)(=O)Nc1ccc2c(c1)Cc1ccccc1-2 | 7.9 | -32.1 | -4.8% | / | -4.8 | Arbovirus anti repeat=3.0
COC(=O)C1=CN(c2cccc(C)c2)C=C(C(=O)OC)C1c1cc(OC)c(O)c([N+](=O)[O-])c1 | 1.2 | -46.3 | 0.0% | 10.3 | 6.2
Cn1c(=O)c2c(n(Cc3ccccc3)c1=O)NC(=O)C2CC(=O)O (configuration not stated) | -0.5 | -26.9 | 1.6% | -1.0 | -16.2
CCOC(=O)C1(CCc2ccccc2)CCN(Cc2nccn2CC)CC1 | 15.8 | / | 4.8% | 1.1 | 2.4
CCCCNC(=O)NS(=O)(=O)c1ccc(C(=O)OC)o1 | 3.5 | -38.0 | 2.3% | -0.2 | -4.7
Cc1ccc(S(=O)(=O)N2CCc3cc4c(cc3C2C)OCCCO4)cc1 (configuration not stated) | / | / | / | 5.0 | -4.0
COc1ccc(NC(=O)CSc2nnnn2-c2ccc(F)cc2)cc1 | / | / | / | -0.2 | -5.6
Cc1cccc(OCc2n[nH]c(=S)n2Cc2ccccc2)c1 | 3.0 | / | 4.5% | 14.6 | 6.0
Cc1cc(C)n2cc(CSc3ccc(Br)cc3)nc2n1 | 10.5 | / | 11.4% | 2.8 | -7.3
CCCCC1NC(C(=O)O)CS1 (configuration not stated) | 10.5 | -12.6 | 36.4% | -4.2 | -3.2
COC(=O)C(CC(C)C)NC(=O)c1ccc(F)cc1 (configuration not stated) | 7.0 | -53.4 | -0.8% | 0.6 | 2.7
COc1cc(/C=N/NC2=NS(=O)(=O)c3ccccc32)ccc1OC(C)=O | / | / | / | -3.1 | 7.9
Cc1ccc(N(C)S(=O)(=O)c2c(C)noc2/C=C/N(C)C)cc1 | / | / | / | -2.1 | -9.7
